High-throughput results: PubChem BioAssay, National Center for Advancing Translational Sciences (NCATS)
Rango-impB inh: Rango-importin beta binding inhibition; Q14974; Rango CFP/YFP FRET sensor + importin beta, 45 min; Potency, µM (highest dose often 92.2 µM), inactives show at the highest dose inhibition of complex formation; 340,000 tested, 0.031% active; AID 540263; active = rising FRET ratio curve, often small or poorly fitted; inconclusive = mostly compound fluorescence or quenching in the first reads; inactive = flat curves in all reads;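 note: potency is the fitted concentration of half-maximal effect; 0% = DMSO wells and 100% = buffer wells lacking importin beta; nearly all actives have a fitted effect of over 15% in size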
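FRET biosensor Rango (snurportin 1 IBB between N-terminal EYFP and C-terminal Cerulean), 50 nM in PBS/1 mM DTT/0.02% Tween-20/0.1% BSA, preincubated 5 min RT with compound; 0.125 microM importin beta added, 45 min RT, CFP/YFP FRET ratio read.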
GLA inh pH 4.5: alpha-galactosidase A (human) inhibition, pH 4.5. P06280. purified enzyme, 4-MU-alpha-Gal fluorescence, pH 4.5. activity change, negative = inhibition, % at 105 µM. 230,000 tested, under 10 active. AID 1467; inconclusive = small, poorly fitted or top-dose-only inhibition, or a rising curve; inactive = flat fitted curve, though single readings scatter; no compound was filed as active;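 note: 0% = full activity with enzyme and -100% = basal without enzyme; dose as in the result columns while the protocol names 77 µM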
Target sequence (P06280 whole entry, looked up): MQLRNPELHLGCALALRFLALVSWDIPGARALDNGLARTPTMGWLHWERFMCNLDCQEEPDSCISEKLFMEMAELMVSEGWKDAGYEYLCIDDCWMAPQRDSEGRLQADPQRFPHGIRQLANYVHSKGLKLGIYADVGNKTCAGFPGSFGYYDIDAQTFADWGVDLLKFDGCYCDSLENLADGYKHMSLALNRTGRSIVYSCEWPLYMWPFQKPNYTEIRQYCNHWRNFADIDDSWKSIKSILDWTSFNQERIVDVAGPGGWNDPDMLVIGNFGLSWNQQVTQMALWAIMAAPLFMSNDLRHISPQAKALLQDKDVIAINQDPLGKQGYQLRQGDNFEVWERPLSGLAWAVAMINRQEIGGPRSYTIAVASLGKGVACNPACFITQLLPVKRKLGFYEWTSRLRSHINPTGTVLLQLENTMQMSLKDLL
miR-21 FLuc: miR-21 reporter, rising signal. HeLa miR-21 FLuc reporter, luciferase, 48 h. Potency, µM (top dose mostly 38.3 µM), without a hit: at the highest dose reporter change, positive = more light. 340,000 tested, under 10 active. AID 2288; active = well fitted rising curve with a large enough effect; inconclusive = small, poorly fitted or top-dose-only effect; inactive = no such curve, though single readings can be large or run the other way;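 note: % of control where 0% means no effect; miR-21 action dims this reporter so a rising signal means less miR-21 action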
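Using DMEM plus 10% FBS, HeLa miR-21-FLuc cells are incubated with test compounds (final up to about 40uM) for 48 hours; firefly luciferase signal is then imaged following reagent-mediated lysis.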
Rango release inh: prevents RanGTP from dissociating the Rango-importin beta complex | O95149+P62826 | Biochemical FRET Rango-importin beta, RanGTP-induced dissociation | Potency, µM (top dose mostly 46.1 µM), without a hit: top-dose activity change, negative = inhibition | 340,000 tested, 0.071% active; active means falling FRET ratio curve, often poorly fitted, with flat reads before Ran was added; inconclusive means other falling curves, or compound fluorescence or quenching; inactive means flat or rising ratio curve;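 note: potency is the fitted concentration of half-maximal effect; % of control where 0% means no effect; nearly all actives have a fitted effect of over 45% in size; -100% = wells without RanGTP and RCC1; the record marks most hits as doubtful in a second field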
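Rango FRET biosensor (snurportin-1 IBB flanked by N-terminal EYFP and C-terminal CFP10) at 0.1 uM, with 0.25 uM importin beta in PBS, 1mM DTT, 0.02% Tween-20, 0.1% BSA. 0.6 uM Ran, 2mM GTP and 0.2 uM RCC1 were then added for 45 min at room temperature. Inhibition read as loss of FRET rise.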
An asterisk follows results filed as active; [ ] = another dose, or the depositor's remark. The list is partial; count on the stated rates, not on these rows.

For CC(=O)NCC(=O)N(C)C(C(=O)Nc1ccc2c(c1)OCCO2)c1ccccc1 (centres undefined) the results were Rango-impB inh -0.5%, GLA inh pH 4.5 3, miR-21 FLuc -10% and Rango release inh 4%.
Screening O=C(CNS(=O)(=O)c1ccc([N+](=O)[O-])cc1)N/N=C\c1ccc(O)cc1 returned Rango-impB inh 0.3%, miR-21 FLuc 1% and Rango release inh -7%.
CN1CCCN(C(=O)/C=C/c2ccc(F)cc2)CC1 was read as Rango-impB inh -0.6%, GLA inh pH 4.5 -1, miR-21 FLuc -12% and Rango release inh -3%.
O=C(C1CCN(c2ncnc3c2nc2n3CCCCC2)CC1)N1CCCCC1 was read as Rango-impB inh 2.9%, miR-21 FLuc -2% and Rango release inh -13%.
Screening Cc1nc(C)c(C(=O)N2CCCC(C(=O)c3ccc4ccccc4c3)C2)s1 (centres undefined) returned Rango-impB inh 4.5%, miR-21 FLuc 1% and Rango release inh -6%.
For O=C(Cc1ccccc1)Nc1cccc(C(=O)O)c1O the results were Rango-impB inh 1.5%, GLA inh pH 4.5 1[21.1 µM], miR-21 FLuc -6% and Rango release inh 4%.
Screening CCc1c(C)nn(C(=O)/C(C#N)=C\N(C)C)c1C returned Rango-impB inh -1.6%, GLA inh pH 4.5 8, miR-21 FLuc -2% and Rango release inh 12%.
Screening COc1ccc2c(C)cc(=O)oc2c1C returned Rango-impB inh 1.9%, GLA inh pH 4.5 -16, miR-21 FLuc -10% and Rango release inh -1%.
Screening O=C(CCCSc1nc2ccccc2[nH]1)NCc1ccccc1F returned Rango-impB inh 0.8%, GLA inh pH 4.5 -5, miR-21 FLuc -8% and Rango release inh 4%.
`CCOC(=O)C1=C(C)N(c2ccc(C)cc2)C(=O)/C1=C\c1cccs1` gave Rango-impB inh -0.9%, GLA inh pH 4.5 -17, miR-21 FLuc -16% and Rango release inh 1%.
For CCOc1c(Cl)cc(C(=O)NCCN2CCCCC2)cc1Cl the results were Rango-impB inh 1.8%, GLA inh pH 4.5 -7, miR-21 FLuc 1% and Rango release inh 3%.
For CCn1c(NCc2ccc(N(C)C)cc2)nc2ccccc21 the results were Rango-impB inh 0.0%, GLA inh pH 4.5 2, miR-21 FLuc -36% and Rango release inh 16%.
For Cc1ccccc1/C(N)=N/OC(=O)N1c2ccccc2Sc2ccccc21 the results were Rango-impB inh 0.4%, GLA inh pH 4.5 -11, miR-21 FLuc -10% and Rango release inh -22%.
`Cc1cc(=O)oc2c(C)c(OC(C)C(=O)NC3CCN(Cc4ccccc4)CC3)ccc12` (centres undefined) gave Rango-impB inh -0.7%, miR-21 FLuc 2% and Rango release inh 11%.
For C/C(=N/N=C/c1ccc(N(C)C)cc1)c1ccccc1 the results were Rango-impB inh inconclusive, GLA inh pH 4.5 -13, miR-21 FLuc -58% and Rango release inh -13%.
For N#CC1=C(N)N(c2ccc(F)cc2)C(=O)C1 the results were Rango-impB inh 3.3%, GLA inh pH 4.5 10, miR-21 FLuc 6% and Rango release inh 2%.
For CCN=C(NS(=O)(=O)c1ccc(Br)cc1)c1ccc(Cl)cc1 the results were Rango-impB inh 1.7%, GLA inh pH 4.5 -14, miR-21 FLuc -15% and Rango release inh 5%.
`CCOc1ccccc1C(=O)Nc1cccc(-c2ccc3nncn3n2)c1` gave Rango-impB inh 3.2%, GLA inh pH 4.5 -6, miR-21 FLuc -16% and Rango release inh 21%.
For O=C(Nc1ccc(C(=O)N2CCOCC2)cc1)c1cnn2c(C(F)F)cc(-c3ccccc3)nc12 the results were Rango-impB inh 5.8%, GLA inh pH 4.5 5, miR-21 FLuc -8% and Rango release inh 1%.
Screening CCN(CC(=O)NC(=O)NC1CCCC1)Cc1ccccc1 returned Rango-impB inh 7.3% and Rango release inh -13%.
Cc1c(S(=O)(=O)Nc2cc(Cl)ccc2Cl)c(=O)n(C)c(=O)n1C was read as Rango-impB inh 4.4%, GLA inh pH 4.5 -4, miR-21 FLuc -13% and Rango release inh -22%.
Screening Cc1ccc(-c2noc(C3CCCN(C(=O)c4ccc(F)cc4F)C3)n2)cc1 (centres undefined) returned Rango-impB inh 8.5%, GLA inh pH 4.5 -10, miR-21 FLuc 5% and Rango release inh 0%.
`CC(/C=N/Nc1nnc2c(n1)[nH]c1ccccc12)=C\c1ccco1` gave Rango-impB inh inconclusive, GLA inh pH 4.5 -1, miR-21 FLuc -27% and Rango release inh -18%.
Cc1ccc(Nc2cc(C)c(O)c(C)c2)cc1 was read as Rango-impB inh -0.5%, miR-21 FLuc -10% and Rango release inh 2%.
`Cc1ccc(-c2cc(C(=O)N3CCN(C4CCS(=O)(=O)C4)CC3)c3ccccc3n2)cc1` (centres undefined) gave Rango-impB inh inconclusive and Rango release inh 6%.
Screening COC(=O)c1nn(-c2ccccc2)c(=O)cc1Oc1ccc(Cl)cc1 returned Rango-impB inh 1.8%, GLA inh pH 4.5 -3, miR-21 FLuc 1% and Rango release inh 6%.
COc1ccc(CC(=O)NC2CCN(CC(=O)N3CCCc4ccccc43)CC2)cc1OC was read as Rango-impB inh 3.1%, GLA inh pH 4.5 2, miR-21 FLuc -1% and Rango release inh -1%.
`Cc1cc(Cl)c2oc(C(=O)NC(C)c3ccncn3)c(C)c2c1` (centres undefined) gave Rango-impB inh 1.8%, miR-21 FLuc -15% and Rango release inh 4%.
`N#Cc1ccc(CC(C(=O)O)N2Cc3ccccc3C2=O)cc1` (centres undefined) gave Rango-impB inh 1.1%, miR-21 FLuc -1% and Rango release inh -10%.
CCCCNC(=O)CC(NS(=O)(=O)c1ccc(C)cc1)c1ccco1 (centres undefined) was read as Rango-impB inh -3.0%, GLA inh pH 4.5 -2, miR-21 FLuc -2% and Rango release inh 16%.
`Cc1cccc(NC(=O)CSc2nnc(NC(=O)C3CC3)s2)c1C` gave Rango-impB inh 7.2%, miR-21 FLuc 10% and Rango release inh -7%.
For N#Cc1cc(S(=O)(=O)c2ccccc2)c(N)[nH]c1=O the results were Rango-impB inh inconclusive, GLA inh pH 4.5 15, miR-21 FLuc -2% and Rango release inh inconclusive.
For CCOC(=O)C1=C(COC(=O)/C=C/c2cccc(OC)c2OC)NC(=O)NC1C (centres undefined) the results were Rango-impB inh -1.1%, miR-21 FLuc -16% and Rango release inh -7%.
Cn1cc(CCC(=O)NC2CC(C)(C)Cc3c2cnn3-c2ccc(F)cc2)cn1 (centres undefined) was read as Rango-impB inh 0.8%, miR-21 FLuc -11% and Rango release inh 1%.
O=C1C2C3C=CC(O3)C2C(=O)N1Nc1ccccc1 (centres undefined) was read as Rango-impB inh -0.4% and Rango release inh -21%.
Screening O=C(COC(=O)CCc1ccc(S(=O)(=O)N2CCOCC2)cc1)Nc1ccccc1OC(F)F returned Rango-impB inh 1.5% and Rango release inh 0%.

Brought forward from above: two entries, followed by the next part.
O=C1C2C3C=CC(O3)C2C(=O)N1Nc1ccccc1 (centres undefined) was read as Rango-impB inh -0.4% and Rango release inh -21%.
Screening O=C(COC(=O)CCc1ccc(S(=O)(=O)N2CCOCC2)cc1)Nc1ccccc1OC(F)F returned Rango-impB inh 1.5% and Rango release inh 0%.
Cc1ccnc(NS(=O)(=O)c2ccc(NC(=O)C3COc4ccccc4O3)cc2)n1 (centres undefined) was read as Rango-impB inh -1.0%, GLA inh pH 4.5 2, miR-21 FLuc -13% and Rango release inh -17%.
Screening Oc1ccccc1C=NNC(=S)NN=Cc1ccccc1O returned Rango-impB inh inconclusive and Rango release inh inconclusive.
Screening COc1ccc(/C=N/N2CCOCC2)cc1Cn1cc([N+](=O)[O-])cn1 returned Rango-impB inh -3.2%, GLA inh pH 4.5 6, miR-21 FLuc 1% and Rango release inh 9%.
COc1cccc(C(=O)Nc2nnc(S(=O)(=O)N(C)Cc3ccc(F)cc3)s2)c1 was read as Rango-impB inh -1.5%, miR-21 FLuc 0% and Rango release inh 0%.
`O=C(Oc1ccnc2cc(Cl)ccc12)N1CCOCC1` gave Rango-impB inh 0.2%, GLA inh pH 4.5 0, miR-21 FLuc 9% and Rango release inh 16%.
For Cc1ccc2c(COn3nnc4ccc(S(=O)(=O)N(C)C)cc43)cc(=O)oc2c1C the results were GLA inh pH 4.5 -1 and miR-21 FLuc -9%.
For COc1ccc(N/N=C(/C#N)S(=O)(=O)c2nsc(C)c2C#N)cc1 the results were Rango-impB inh 3.4%, GLA inh pH 4.5 -5, miR-21 FLuc -10% and Rango release inh -6%.
For Cc1nnc(SCC(=O)N2CCc3ccccc3C2)s1 the results were Rango-impB inh 1.4%, GLA inh pH 4.5 2, miR-21 FLuc -8% and Rango release inh 7%.
`CSc1ccc(Cl)c(C(=O)NC2CCCC2)c1` gave Rango-impB inh -2.7%, GLA inh pH 4.5 4, miR-21 FLuc -9% and Rango release inh 1%.
For COc1ccccc1CCc1nnc(CCC(=O)NCC(C)Oc2cccnc2)o1 (centres undefined) the results were Rango-impB inh 0.6%, GLA inh pH 4.5 10, miR-21 FLuc 1% and Rango release inh 5%.
C/C(=N\NC(=O)c1cc(-c2ccc(C)s2)[nH]n1)c1ccco1 was read as Rango-impB inh 0.2%, GLA inh pH 4.5 4, miR-21 FLuc -19% and Rango release inh 37%.
For N#C[C@H]1C(O)C(O)c2ccccc2N1C(=O)c1ccccc1 (some centres undefined) the results were Rango-impB inh -1.3% and Rango release inh -9%.

Continued; it opens with the three that closed the last part.
For COc1ccccc1CCc1nnc(CCC(=O)NCC(C)Oc2cccnc2)o1 (centres undefined) the results were Rango-impB inh 0.6%, GLA inh pH 4.5 10, miR-21 FLuc 1% and Rango release inh 5%.
C/C(=N\NC(=O)c1cc(-c2ccc(C)s2)[nH]n1)c1ccco1 was read as Rango-impB inh 0.2%, GLA inh pH 4.5 4, miR-21 FLuc -19% and Rango release inh 37%.
For N#C[C@H]1C(O)C(O)c2ccccc2N1C(=O)c1ccccc1 (some centres undefined) the results were Rango-impB inh -1.3% and Rango release inh -9%.
`C/C(=N\Nc1ccc(S(N)(=O)=O)cc1[N+](=O)[O-])c1cccs1` gave Rango-impB inh -0.9%, miR-21 FLuc -4% and Rango release inh 0%.
Screening CCCNC(=O)C12CCC(C)(C(=O)C1Br)C2(C)C (centres undefined) returned Rango-impB inh -1.6%, GLA inh pH 4.5 1, miR-21 FLuc -3% and Rango release inh 14%.
Cc1c(C)c2ccc(O[C@@H]3O[C@H](CO)[C@@H](O)[C@H](O)[C@H]3O)c(C)c2oc1=O was read as Rango-impB inh -1.0%, miR-21 FLuc -9% and Rango release inh 12%.
CCC(=O)N(Cc1cc(=O)[nH]c2ccccc12)c1ccccc1 was read as Rango-impB inh -2.9%, GLA inh pH 4.5 -2, miR-21 FLuc 3% and Rango release inh 1%.
For O=C1c2ccccc2/C(=C\c2ccc3[nH]ccc3c2)N1c1ccccc1 the results were Rango-impB inh inconclusive and Rango release inh inconclusive.
For Nc1nc(SCc2ccccc2Cl)c2ncn(C3OC(CO)C(O)C3O)c2n1 (centres undefined) the results were Rango-impB inh 6.5% and Rango release inh -9%.
For Cc1ccc(CNC(=O)COC(=O)c2cccc(S(=O)(=O)N3CCCCC3)c2)cc1 the results were Rango-impB inh 6.2% and Rango release inh -16%.
For O=C(Nc1ccc(C(=O)NCc2ccc(F)cc2)cc1)C1=CSCCO1 the results were Rango-impB inh -3.1%, miR-21 FLuc -37% and Rango release inh -6%.
For O=S(=O)(c1ccc(OCC(O)CN2CCN(c3ccc(F)cc3)CC2)cc1)N1CCOCC1 (centres undefined) the results were Rango-impB inh -1.2%, GLA inh pH 4.5 2, miR-21 FLuc 1% and Rango release inh -9%.
Screening O=C(O)CCC1COc2ccccc2O1 (centres undefined) returned Rango-impB inh -0.4%, GLA inh pH 4.5 1, miR-21 FLuc -4% and Rango release inh -1%.
Screening O=C(Cn1cccc(C(F)(F)F)c1=O)c1ccc(Cl)cc1 returned Rango-impB inh -0.4%, GLA inh pH 4.5 4, miR-21 FLuc -3% and Rango release inh 8%.
CCc1ccc(CN(C)C(=O)c2cccc(S(=O)(=O)Nc3ccccc3OC)c2)cc1 was read as Rango-impB inh -0.6% and Rango release inh 7%.
